# HTT promoter inh = HTT promoter inhibition; HEK293 HTT promoter firefly luciferase reporter (activity 0% = vehicle and -100% = no light), 24 h; Potency, µM (top dose mostly 57.5 µM), for inactives: top-dose activity change, negative = inhibition, actives largely listed as inhibitors; 48,000 compounds, 0.93% hits; active = well fitted inhibition curve with a large enough effect; inconclusive = small, poorly fitted or top-dose-only effect; inactive = no such curve, though single readings can be large or run the other way; note: nearly all actives have a fitted effect of over 50% in size
#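 Luminescence was read after Dual-Glo reagent and a 10 min room-temperature incubation. Values were normalized to vehicle (0% activity) and zero RLU (-100% activity). Reporter HEK293 cells had been exposed to compounds (up to 57.5 uM final) for 24 h.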
# PMP22 txn prim = PMP22 gene transcription modulation | S16 Pmp22-F2sN Schwann cells (luciferase reporters placed in the Pmp22 gene), FLuc/NLuc coincidence luminescence, 24 h | 43,000 compounds, 2% hits | Potency, µM (doses to about 57.5 µM), for inactives: top-dose activity change, negative = inhibition, usual class: inhibitors; active = clear falling dose curves in both reporters; inconclusive = both reporters move, but less clearly or upward; inactive = either reporter flat; the % is the NLuc reporter signal; note: % is set by controls: 0 for no effect and ±100 for the full control effect; some results filed as inactive show a strong effect at the top dose
#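 qHTS, 1536-well. Cells seeded, compounds added by pin tool, 24 h 37C. Nano-Glo reagent 1 (lysis/FLuc), 10 min RT, read; Stop&Glo, 10 min RT, read NLuc.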
# * marks the source's active call; other numbers are inactive results; ? = inconclusive; . = not tested or not shown; [ ] = remark or other dose. Potency is the fitted concentration of half-maximal effect. Only part of the results is shown, so the mix of outcomes need not match the whole.
SMILES,HTT promoter inh,PMP22 txn prim
CCOc1ccc(-c2noc(CSc3nnc(Cc4ccccc4)n3-c3ccc(F)cc3)n2)cc1,?,?
CS(=O)(=O)c1ncc(N(Cc2ccccc2)Cc2ccco2)c(C(=O)Nc2cccc(C(F)(F)F)c2)n1,-34%,-1%
COc1ccc(S(=O)(=O)N(CC(=O)Nc2ccccc2Cl)Cc2ccccc2)cc1,-34%,?
Cc1ccc(-n2ncc3c(N(C)Cc4ccccc4)ncnc32)cc1,?,-3%
COc1ccc(NC(=O)CCS(=O)(=O)c2nc(-c3ccc4c(c3)OCO4)cc(C(F)(F)F)n2)c(OC)c1,-6%,4%
CCOc1ccc(NC(=O)CCCn2c(C)c3cnn(-c4ccccc4)c(=O)c3c2C)cc1,-15%,?
CCOC(=O)C1CCN(c2cc3c(cc2NC(=O)c2ccc(OC)c(OC)c2)n(C)c(=O)n3C)CC1,-19%,-3%
CCOc1ccccc1Nc1ncnc2c1cnn2-c1ccc(C)cc1,?,16%
COc1cc2c(cc1OC)CC(=O)N(CCCN(C)C[C@H]1Cc3cc(OC)c(OC)cc31)CC2,-8%,.
COc1ccc(CNc2ncnc3c2cnn3-c2ccc(C)c(C)c2)cc1,33%[activator],?
NC(=O)CCCCC1CCSS1 (configuration not stated),10%,.
COC(=O)c1cc2oc3ccccc3c2n1CC(=O)Nc1ccc(F)c(Cl)c1,-23%,6%
COc1cccc(OC(=O)CSc2nnc(-c3cccs3)o2)c1,2%,1%
Cc1ccc(NC(=O)Nc2ccc3nc(N4CCN(C)CC4)cc(C)c3c2)cc1F,-21%,?
COCCn1c(SCC(=O)c2cc(C)ccc2C)nc2cc(C(=O)NC3CCCC3)ccc2c1=O,-28%,-9%
COC(=O)c1cc2occc2n1Cc1nc(-c2cccc(Br)c2)oc1C,3%,-20%
COC(=O)Cn1c(=O)c2cccn2c2cccnc21,-16%,-4%
CSc1nn(Cc2ccc(F)cc2)c(N(C(C)=O)C(C)=O)c1S(=O)(=O)c1ccccc1,?,-21%
CCOCCCNC(=O)C(c1ccc(OC)cc1)N(Cc1cccs1)C(=O)c1ccccc1O (configuration not stated),-22%,8%
CCOC(=O)C1=C(CN2CCC(C)CC2)NC(=O)NC1c1ccc(F)cc1 (configuration not stated),-6%,8%
CCc1ccc(NC(=O)c2nn(-c3ccc(C)cc3)c(=O)n(C)c2=O)cc1,-13%,5%
Cc1cc(C)nc(NS(=O)(=O)c2ccc(N)cc2)n1,6%,.
CCS(=O)(=O)N1CCc2cc(C(=O)Nc3cc([N+](=O)[O-])ccc3C)ccc21,-16%,16%
Cn1c(=O)n(C)c2cc(CNCc3ccccc3Cl)ccc21,-4%,-29%
Cc1ccc(CNS(=O)(=O)c2cc(C(=O)Nc3ccc(C(C)C)cc3)ccc2F)cc1,?,?

# The last 7 compounds of the part above are carried over, then new ones follow.
SMILES,HTT promoter inh,PMP22 txn prim
CCOCCCNC(=O)C(c1ccc(OC)cc1)N(Cc1cccs1)C(=O)c1ccccc1O (configuration not stated),-22%,8%
CCOC(=O)C1=C(CN2CCC(C)CC2)NC(=O)NC1c1ccc(F)cc1 (configuration not stated),-6%,8%
CCc1ccc(NC(=O)c2nn(-c3ccc(C)cc3)c(=O)n(C)c2=O)cc1,-13%,5%
Cc1cc(C)nc(NS(=O)(=O)c2ccc(N)cc2)n1,6%,.
CCS(=O)(=O)N1CCc2cc(C(=O)Nc3cc([N+](=O)[O-])ccc3C)ccc21,-16%,16%
Cn1c(=O)n(C)c2cc(CNCc3ccccc3Cl)ccc21,-4%,-29%
Cc1ccc(CNS(=O)(=O)c2cc(C(=O)Nc3ccc(C(C)C)cc3)ccc2F)cc1,?,?
NC(=O)COc1ccc(-c2noc(COc3ccc(Cl)cc3)n2)cc1,-10%,9%
COc1cc(NC(=O)c2nnn(CC(=O)Nc3cc(C)ccc3C)c2N)cc(OC)c1,-10%,?
O=C(Nc1ccc(Br)cc1)c1cc2nc(-c3ccccc3)cc(-c3ccccc3)n2n1,-2%,-8%
Cc1cccc(-c2nc(Cn3c(SCc4cccc(C(F)(F)F)c4)nc4ccncc43)c(C)o2)c1,?,-11%
Cc1nn(C)c2c1c(C(F)(F)F)cc(=O)n2C(C)C(=O)NCCC(C)C (configuration not stated),-6%,-67%
O=C(NCC(c1ccc2c(c1)OCO2)N1CCN(c2ccccc2)CC1)c1ccccc1F (configuration not stated),25%,0%
CCCCCn1c(=N)c(S(=O)(=O)c2ccccc2)cc2c(=O)n3ccccc3nc21,7%,?
O=C(CSCc1cnn(-c2ccccc2)c1-n1cccc1)NCc1cccc(Cl)c1,?,-25%
COc1ccc(C)cc1NC(=O)CN(C)S(=O)(=O)c1ccc2c(c1)c(=O)n(C)c(=O)n2C,-4%,-7%
CCCNC(=O)C1CCN(C(=O)N2CC(C)Oc3ccccc32)CC1 (configuration not stated),3%,4%
CCCOc1cccc(C(=O)Nc2cccc3cccnc23)c1,-1%,0%
Fc1ccc(Nc2nc(SCc3ccccc3Cl)nc3ccccc23)cc1,?,?
CCOc1ccc(-c2cc(C(=O)Oc3ccc(C#N)cc3)no2)cc1,23%,-16%
CC(C)c1ccc(NC(=O)Nc2csc3c2CCCC3)cc1,?,?
Cc1ccc(Cl)cc1NC(=O)c1oc2ccc(S(=O)(=O)N3CCC4(CC3)OCCO4)cc2c1C,-7%,7.5µM*
COC(=O)c1ccccc1NC(=O)c1nc(S(=O)(=O)Cc2cccc(C)c2)ncc1Cl,4%,5.3µM*
COc1ccc(Cl)cc1NC(=O)Cn1c(=O)n(CCC(=O)NCc2ccc3c(c2)OCO3)c(=O)c2ccccc21,?,?
CCN1CCN(c2ncnc3c2cnn3-c2cc(Cl)ccc2C)CC1,-21%,?
O=C1c2[nH]nc(-c3ccccc3O)c2C(c2cccc(Cl)c2)N1Cc1cccnc1 (configuration not stated),?,18%
COc1ccccc1CNC(=O)CCCN1C(=O)CSc2c1c(C)nn2-c1ccccc1,-2%,-16%
COC(=O)c1ccc(Cl)cc1NC(=O)N(C)CCc1c(C)nn(C)c1C,-16%,7%
CC(C)N(C(=O)CSc1nc2ccc(Cl)cc2[nH]1)c1ccccc1,-30%,-26%
CCc1ccc(N2CCn3c2nc2c3c(=O)n(Cc3cccc(C)c3)c(=O)n2C)cc1,0%,-2%
COC(=O)c1ccccc1NC(=O)N1CCc2c(sc3c2CCCC3)C1c1ccc(F)cc1 (configuration not stated),-6%,-10%
CCO/C([O-])=N/c1c[n+](N2CCOCC2)no1,12%,.
# Additional compounds follow.
SMILES,HTT promoter inh,PMP22 txn prim
O=C(c1cccn1-c1nnc(N2CCCC2)s1)N1CCN(c2ccc(F)cc2)CC1,-12%,-10%
COc1ccc(Nc2nc3c(S(=O)(=O)c4ccccc4)nnn3c3ccc(Cl)cc23)c(OC)c1,-4%,-11%
Cc1nnc(N2CCN(c3ccccc3F)CC2)c2c1nnn2Cc1ccccc1,?,-4%
CCOC(=O)c1ccc(NC(=O)c2cc3c(=O)n(C)c4ccccc4c3n2C)cc1,-7%,-2%
Cc1ccccc1C(=O)Nc1sc2c(c1C(=O)N1CCCCC1)CCC(C)C2 (configuration not stated),?,8%
CCc1cccc(-n2c(=O)c3cccnc3n2CC(=O)Nc2ccccc2C(=O)OC)c1,-7%,4%
Cc1cc(C)c(NS(=O)(=O)c2cc(-c3onc(C)c3C)ccc2C)c(C)c1,-16%,1%
COc1ccc(C)cc1-n1cnc2cc(C(=O)NC3CCCC3)ccc21,-20%,-5%
CCc1cccc(C)c1NC(=O)C1CCN(S(=O)(=O)c2c(C)noc2/C=C/c2c(C)cc(C)cc2C)CC1,-8%,-15%
CCC(=O)N1c2ccccc2CC1C(=O)NCc1cc(OC)ccc1OC (configuration not stated),10%,7%
O=C(COC(=O)c1cccc(NC(=O)c2ccc(Br)cc2)c1)c1ccc(Br)cc1,?,?
Cc1cccc(NC(=O)CCn2nc(-c3ccccc3)c3ccccc3c2=O)c1,?,3%
CCOC(=O)c1cnc2ccc(C)cc2c1Nc1ccc(OCc2ccccc2Cl)cc1,?,?
COc1ccc(CCNC(=O)CSc2cn(CCNC(=O)c3ccccc3F)c3ccccc23)cc1OC,-30%,?
CCOc1ccccc1Nc1sc(C(=O)c2ccccc2)c(N)c1C(=O)Nc1ccc(F)cc1,?,-39%
Cc1ccc(NC(=O)CSc2nc(-c3ccccc3Cl)nc3cc(=O)[nH]n23)c(C)c1,-17%,?
CCOc1ccc(-n2nc(CO)c(C(=O)NCc3cccc(OC)c3)n2)cc1,5%,-2%
Cc1c(Cl)cccc1NC(=O)CN(CCc1ccccc1)S(=O)(=O)c1ccccc1,?,-2%
O=C(Cn1ncc2ccsc2c1=O)N1CCN(c2ccccc2F)CC1,-11%,-9%
COCCNC(=O)CCC(=O)NNc1nc2ccccc2c2nc(C)nn12,-13%,-4%
Clc1ccc2c(c1)NC(c1ccncc1)=NC(c1cccs1)=N2,-7%,-5%
CCCCNC(=O)C1CCN(Cc2nc(-c3ccc(OC)c(OC)c3)oc2C)CC1,7%,-5%
Cn1cnnc1SCC(=O)Nc1ccc(C#N)cc1,-11%,14%
COc1ccc(C(=O)Nc2ccc(C(=O)OCc3cc(=O)n4nc(C(C)C)sc4n3)cc2)cc1,33%,12%
Cc1ccc(C)c(CN2C(=O)CSc3ccc(C(=O)NCCc4ccc(Cl)cc4)cc32)c1,-10%,?
# (listing goes on)
SMILES,HTT promoter inh,PMP22 txn prim
Cc1nc2cc(-c3ccccc3)nn2c(C)c1CCC(=O)Nc1ccc(F)cc1F,?,-27%
Cc1ccc(CN(C(=O)COc2cccc(Cl)c2)c2ccccn2)o1,?,9%
Cc1ccc(C)c(Cn2c3ccccc3c3cnn(CC(=O)NCc4ccccc4)c(=O)c32)c1,2%,?
O=C(c1cccs1)N1CCCc2cc(NS(=O)(=O)c3cc(F)ccc3F)ccc21,-36%,-2%
O=C(Nc1cccc(C(F)(F)F)c1)c1ccc2snnc2c1,-7%,-7%
CCOc1ccc(S(=O)(=O)c2c(C(=O)c3ccc(CC)cc3)cnc3ccc(C)cc23)cc1,-21%,?
CC(=O)Nc1ccc(NC(=O)CSc2nccn2Cc2ccc3c(c2)OCO3)cc1,?,-9%
COc1ccc(OC)c(NC(=O)C(C)n2c(=O)c(-c3ccccc3NC(C)=O)nc3ccccc32)c1 (configuration not stated),-13%,-10%
CN1CCN(C2(CNC(=O)c3ccc([N+](=O)[O-])cc3)CCCCC2)CC1,-12%,-35%
Cc1cc2nnc(SCc3ccc(F)cc3)n2c2ccccc12,-4%,?
CCOC(=O)c1ccc(NC(=O)c2csnn2)cc1,50%[activator],?
CCCn1c2ccccc2c2cnn(CC(=O)Nc3ccc(C)cc3Br)c(=O)c21,-9%,?
CCc1ccc(NC(=O)C2CCCN(S(=O)(=O)c3cccc4nonc34)C2)cc1 (configuration not stated),-6%,-22%
COc1ccc(C)c2sc(N(Cc3cccnc3)C(=O)COc3ccccc3)nc12,?,?
Cc1ccc(Cl)cc1NC(=O)C1CCCN(S(=O)(=O)c2cccc3cccnc23)C1 (configuration not stated),-32%,0%
CCN(CC)c1nn2c(=O)c(C(=O)NCc3cccc(OC)c3OC)cnc2s1,8%,-15%
CCOCCc1nn2c(=O)cc(COC(=O)COc3ccc(C)c(C)c3)nc2s1,2%,1%
CC(C)Cc1nn2c(=O)cc(COC(=O)CNC(=O)c3ccc(C(C)(C)C)cc3)nc2s1,-7%,-30%
CCN(Cc1ccccc1)C(=O)c1nc(-c2cccc(F)c2)n2c1CCCCC2,-26%,-4%
COc1ccccc1NC(=O)C1CCN(S(=O)(=O)c2ccc3c(c2)oc(=O)n3C)CC1,-13%,-15%
CC1=C(C(=O)OC2CCCC2)C(c2ccc(Cl)cc2)CC(=O)N1 (configuration not stated),?,-6%
COc1ccc(-c2onc(C)c2C)cc1S(=O)(=O)NCC1CCN(Cc2ccccc2F)CC1,-29%,?
O=C(NCc1ccco1)c1ccc(Cn2c(SCc3ccc(F)cc3)nc3cccnc32)cc1,-26%,-30%
Cc1cn(-c2cc(NC(=O)c3ccc(C)c(Nc4nccc(-c5cccnc5)n4)c3)cc(C(F)(F)F)c2)cn1,4%,.
O=C(Nc1ccc(S(=O)(=O)Nc2ccccc2)cc1)N1CCCC1,-18%,-2%

# Profiles as entered above. Order of screens: HTT promoter inh | PMP22 txn prim
# O=C(NCc1ccco1)c1ccc(Cn2c(SCc3ccc(F)cc3)nc3cccnc32)cc1 as listed: -26% | -30%
# O=C(Nc1cccc(C(F)(F)F)c1)c1ccc2snnc2c1 as listed: -7% | -7%

# (listing goes on)
SMILES,HTT promoter inh,PMP22 txn prim
Cc1ccc(Nc2nc(Nc3ccc(C)c(C)c3)nc(N3CCOCC3)n2)cc1C,?,0%
COc1ccc(C2C=C(c3ccccc3)Nc3nc(NS(=O)(=O)c4ccc(Cl)cc4)nn32)cc1 (configuration not stated),-12%,-71%
COc1ccc(CCN2C(=O)N(c3ccc(C)cc3)C(=O)C2CC(=O)Nc2ccc(OC)cc2)cc1 (configuration not stated),?,-27%
COc1ccc(C)cc1NC(=O)C1CCCN(S(=O)(=O)c2ccc3[nH]c(=O)ccc3c2)C1 (configuration not stated),-24%,-17%
O=S(=O)(c1cccs1)N1CCN(c2ccc(Cl)cc2)CC1,-52%,-23%
Cc1ccc(NC(=O)C(=O)NCC2(c3ccccc3)CCCC2)cc1C,7%,?
O=C(Nc1cc(-c2cccc(Cl)c2)nn1-c1ccccc1)c1ccccc1F,-7%,-21%
COc1ccc(Cn2c(=O)[nH]c3cc(C(=O)N4CCN(c5cccc(Cl)c5)CC4)ccc3c2=O)cc1,-11%,-5%
